rRNA inh HTS: inhibits bacterial ribosomal RNA function over humanized ribosomes | E. coli WT GFP vs humanized-ribosome RFP mutants, fluorescence, 24 h; hits give low values; DMSO median 0, no signal -100 | GFP signal change (wild-type ribosome), % (concentration not given with the values) | hit rate 1.6% among 350,000 | AID 720706;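 active = significant combined selectivity score with lowered wild-type GFP, culture density cut under 30%, mutant RFP and density less affected; inactive = any of these conditions unmet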; also: one replicate is shown; some compounds called inactive have numbers as strong as hits
AF4-AF9 inh: blocks AF4 peptide binding to human AF9; P42568; AlphaScreen, biotin-AF4 peptide binding to FLAG-AF9; inhibition, % at 10 µM; hit rate 0.47% among 350,000; AID 651704;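 active = every replicate reaching a set inhibition limit, whatever the replicate mean, cut at about 25% in these data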;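 also: 0% = plate neutral control median and 100% = total signal loss; the record names both 10 and 1 µM as test concentration; the first replicate is given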
Target sequence (P42568 whole entry, looked up): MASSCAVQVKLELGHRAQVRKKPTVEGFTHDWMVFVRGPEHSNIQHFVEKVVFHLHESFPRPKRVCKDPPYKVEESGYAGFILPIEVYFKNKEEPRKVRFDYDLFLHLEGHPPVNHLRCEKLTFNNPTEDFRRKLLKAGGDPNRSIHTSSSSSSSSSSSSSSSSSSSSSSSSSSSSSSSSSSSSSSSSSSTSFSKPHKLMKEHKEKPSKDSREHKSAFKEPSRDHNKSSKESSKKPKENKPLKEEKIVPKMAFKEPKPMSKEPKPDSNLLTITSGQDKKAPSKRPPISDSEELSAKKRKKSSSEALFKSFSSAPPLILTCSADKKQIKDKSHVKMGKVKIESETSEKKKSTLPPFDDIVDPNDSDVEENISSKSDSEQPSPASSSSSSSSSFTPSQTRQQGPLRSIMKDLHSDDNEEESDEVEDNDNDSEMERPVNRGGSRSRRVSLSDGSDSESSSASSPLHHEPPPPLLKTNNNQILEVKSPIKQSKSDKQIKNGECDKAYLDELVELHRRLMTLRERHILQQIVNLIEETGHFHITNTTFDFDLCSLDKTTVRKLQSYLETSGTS
rRNA inh HTS OD600: also measured in rRNA inh HTS; calls as there; OD600 change, %; measured here: OD600 growth;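 optical density of the mix in the first replicate; 0 = DMSO median and -100 = no signal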
rRNA inh HTS RFP: also measured in rRNA inh HTS; calls as there; RFP signal change, %; measured here: RFP humanized mutant strains;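 first replicate; 0 = DMSO median and -100 = no signal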
Numbers without * were called inactive. Not all compounds are listed. The share of hits here may be higher or lower than overall.

SMILES	rRNA inh HTS	rRNA inh HTS OD600	rRNA inh HTS RFP	AF4-AF9 inh
C[C@@H]1CN([C@H](C)CO)C(=O)c2cc(NC(=O)Nc3ccccc3)ccc2O[C@@H]1CN(C)S(=O)(=O)c1ccccc1	-1.2	-12.5	-2.3	-0.5
Cc1noc(C)c1NC(=O)Nc1cccc2c1O[C@@H](CN(C)Cc1ccc(Oc3ccccc3)cc1)[C@H](C)CN([C@@H](C)CO)C2=O	-5.9	-13.9	5.0	5.0
C[C@@H]1CN([C@@H](C)CO)C(=O)c2cccc(NS(=O)(=O)c3cccs3)c2O[C@@H]1CN(C)C(=O)NC1CCCCC1	-3.1	-6.9	-1.1	-2.2
COc1ccc(NC(=O)Nc2ccc3c(c2)C(=O)N([C@H](C)CO)C[C@H](C)[C@@H](CN(C)Cc2ccc(Oc4ccccc4)cc2)O3)cc1	2.9	4.4	3.1	-6.9
C[C@@H]1CCCCO[C@@H](CN(C)S(=O)(=O)c2ccccc2)[C@@H](C)CN([C@H](C)CO)C(=O)c2cc(NC(=O)Nc3ccc(C(F)(F)F)cc3)ccc2O1	3.3	8.0	-0.5	-0.3
CCNC(=O)C[C@H]1CC[C@@H]2[C@@H](COc3ccc(NC(=O)c4ccc(F)c(F)c4)cc3C(=O)N2C)O1	-1.6	0.8	0.6	0.4
C[C@@H]1CN([C@@H](C)CO)C(=O)c2cc(NC(=O)Nc3ccc(C(F)(F)F)cc3)ccc2O[C@@H]1CN(C)C(=O)Nc1ccc2c(c1)OCO2	1.1	3.6	-3.6	2.4
COc1ccc(-c2ccc3n(c2=O)C[C@@H]2[C@@H](CO)[C@H](C(=O)NC4CCC4)N(S(C)(=O)=O)[C@H]32)cc1	1.1	-3.4	-0.2	1.0
C[C@@H]1CN([C@H](C)CO)C(=O)Cc2cc(NS(C)(=O)=O)ccc2O[C@H]1CN(C)C	1.4	13.8	-1.4	1.2
Cc1cc(F)cc(-c2cc(C(=O)NCc3ccco3)[nH]n2)c1	-5.6	-13.1	-2.3	0.4
CCCc1nc2ccc(C)cn2c1Cc1ccc(OC)cc1C	8.5	9.5	5.2	3.6
C[C@@H]1CN([C@H](C)CO)C(=O)c2cc(C#CCN(C)C)cnc2O[C@H]1CN(C)C(=O)c1cccnc1	-1.7	9.8	-3.4	-6.0
C=CCNc1cccc2c1S(=O)(=O)N[C@H](CC(C)C)CO2	-2.8	-2.5	0.7	-2.5
COc1ccccc1C(=O)N1C[C@@H]2[C@H](c3ccccc31)[C@H](CO)N2CC1CCCC1	-16.1	-33.4	-1.5	1.2
COC(=O)C[C@@H]1CC[C@@H]2[C@H](COc3ccc(NC(=O)NC(C)C)cc3C(=O)N2C)O1	3.6	0.9	-1.1	-1.9
O=S(=O)(c1ccc(F)cc1)N1CCCCN2[C@H](C1)[C@@H](c1ccc(C#CC3CC3)cc1)[C@@H]2CO	4.4	-12.0	-0.7	-5.0
COc1ccc(CN(C)C[C@@H]2Oc3ccc(NC(=O)Nc4ccc(C(F)(F)F)cc4)cc3CC(=O)N([C@H](C)CO)C[C@H]2C)cc1	1.3	-8.5	4.4	-0.4
O=C(NCC1CCCCC1)c1cc(-c2cc(F)ccc2OCC2CCCO2)n[nH]1 (configuration not stated)	-8.2	-23.0	4.3	-4.7
CCCNC(=O)N1CC2(CN(S(C)(=O)=O)C2)c2c(n(C)c3cc(OC)ccc23)[C@H]1CO	-2.0	2.2	-4.0	-14.1
CCC(=O)N1CC2(C1)[C@H](c1ccccc1)[C@H](CO)N2C(=O)c1ccccc1	2.8	-8.8	-1.8	-0.8
C[C@@H]1CN([C@H](C)CO)C(=O)c2cc(NS(=O)(=O)c3cccs3)ccc2O[C@@H]1CN(C)C(=O)NC1CCCCC1	-2.6	-11.6	1.1	-1.4
C[C@H]1CN([C@@H](C)CO)C(=O)c2cc(NC(=O)Cc3ccccc3)ccc2O[C@@H]1CN(C)S(=O)(=O)c1cn(C)cn1	1.4	5.8	-0.6	-2.8
COc1ccc2c3c([nH]c2c1)[C@H](CO)N(C(=O)Nc1ccc(F)cc1)CC31CCN(S(=O)(=O)c2cccc(F)c2)CC1	-0.1	-3.4	1.0	-0.1
C[C@H]1CN([C@@H](C)CO)C(=O)c2cccc(NC(=O)c3ccncc3)c2O[C@H]1CN(C)C(=O)Nc1ccc(C(F)(F)F)cc1	-2.3	-2.9	-1.3	-17.3
C[C@H]1CN([C@@H](C)CO)C(=O)c2cc(-c3ccccc3)cnc2O[C@H]1CN(C)C	-3.2	8.3	-3.7	-2.3
Nc1nc2c(Br)ccc(Br)c2cc1C(=O)NCCc1ccccc1	-6.8	0.9	1.3	0.4
C[C@@H]1CN([C@H](C)CO)C(=O)c2cccc(NC(=O)c3ccncc3)c2O[C@@H]1CN(C)Cc1ccc(-c2ccccc2)cc1	-3.8	-6.1	-4.8	4.8
C[C@@H]1CN([C@H](C)CO)S(=O)(=O)c2ccc(-c3ccc(C#N)cc3)cc2O[C@@H]1CN(C)C(=O)Nc1cc(F)ccc1F	-5.8	-11.1	0.2	-20.8
C[C@H](CO)N1C[C@H](C)[C@@H](CN(C)Cc2ccc(C(=O)Nc3ccccc3N)cc2)Oc2ccc(NS(=O)(=O)c3ccc(F)cc3)cc2CC1=O	-4.5	3.6	2.4	3.0
COc1ccc2c3c([nH]c2c1)[C@H](CO)NCC31CN(Cc2cc(F)ccc2F)C1	1.0	11.5	2.7	12.9
C[C@@H]1CN([C@H](C)CO)C(=O)c2cc(NC(=O)Nc3cccc4ccccc34)ccc2O[C@@H](C)CCCCO[C@H]1CN(C)S(=O)(=O)c1ccc(Cl)cc1	6.1	10.7	-1.2	-1.9
C[C@@H]1CN([C@H](C)CO)C(=O)c2cc(NC(=O)Nc3ccc(F)cc3)ccc2O[C@@H](C)CCCCO[C@@H]1CN(C)C(=O)NC1CCCCC1	0.1	-7.5	1.1	5.2
Cc1c(C(=O)NCc2ccccc2)sc(=O)n1Cc1ccccc1F	0.2	1.8	-3.6	3.5
CO[C@@H]1CN(C)C(=O)c2ccc(NC(=O)c3ccc(F)cc3)cc2OC[C@H](C)NC[C@H]1C	-1.8	1.1	1.5	0.0
C[C@H](CO)N1C[C@H](C)[C@H](CN(C)C(=O)Cc2ccccc2)OCCCC[C@H](C)Oc2ccc(NC(=O)Nc3cccc4ccccc34)cc2C1=O	1.0	5.0	-1.2	-2.0
O=C(O)C[C@@H]1C[C@H]2c3cc(NC(=O)Nc4ccc(F)cc4)ccc3O[C@H]2[C@H](CO)O1	3.4	-2.1	-0.1	-2.4
O=C(C[C@@H]1CC[C@@H]2NC[C@@H](O)COC[C@H]2O1)NCCN1CCCC1	5.5	7.8	-3.1	-26.3
C[C@@H]1CCCCO[C@@H](CN(C)C(=O)Cc2ccccc2)[C@H](C)CN([C@H](C)CO)C(=O)c2cc(NC(=O)Cc3ccccc3)ccc2O1	-4.6	-13.8	-0.3	-4.3
C[C@H](CO)N1C[C@H](C)[C@@H](CN(C)C)Oc2c(NS(=O)(=O)c3ccc(Cl)cc3)cccc2C1=O	4.8	5.3	2.3	-1.4
CN(C)CC#Cc1ccc([C@H]2[C@@H](CO)N(C(=O)C3CC3)[C@H]2C#N)cc1	5.7	5.5	-3.0	-1.5
C[C@H]1CN([C@@H](C)CO)C(=O)c2cc(NS(=O)(=O)c3ccc(F)cc3)ccc2O[C@H]1CN(C)Cc1ccc(C(F)(F)F)cc1	0.1	-13.3	8.1	0.1
COCC(=O)N1[C@@H](C#N)[C@@H](c2ccccc2-c2cccc(OC)c2)[C@@H]1CO	1.0	7.4	3.5	0.0
O=C(Nc1ccc(Cl)c(Cl)c1)N[C@H]1CC[C@H](CCNC(=O)c2ccc(F)cc2)O[C@@H]1CO	-56.7	-67.7	-10.9	-0.2
O=C(C[C@@H]1C[C@H]2c3cc(NC(=O)C4CCOCC4)ccc3O[C@H]2[C@@H](CO)O1)NC1CCCC1	2.2	3.2	0.8	-0.9
C[C@@H]1CN([C@@H](C)CO)C(=O)c2ccccc2-c2ccccc2CO[C@@H]1CN(C)S(=O)(=O)c1ccc(Cl)cc1	-3.0	-7.7	4.5	-3.2
CCCNC(=O)[C@H]1[C@H](CO)[C@H]2Cn3c(ccc(C4=CCCC4)c3=O)[C@@H]1N2	3.4	13.3	0.8	-2.6
CC(C)NC(=O)N(C)C[C@@H]1Oc2ccc(NC(=O)Nc3ccccc3)cc2C(=O)N([C@H](C)CO)C[C@@H]1C	3.2	-2.2	-1.1	-2.2
CCCCCCCCN1C(=O)[C@H](CC(=O)NCc2ccc(C)o2)C[C@@]2(C(=O)OC)CC(C)(C)CC=C12	-1.5	-2.6	-1.5	-2.7
Cc1noc(C)c1NC(=O)N(C)C[C@H]1Oc2c(NS(=O)(=O)c3ccccc3)cccc2C(=O)N([C@H](C)CO)C[C@H]1C	2.1	1.5	-3.7	-1.0
CC(C)CC#Cc1ccc2c(c1)O[C@@H](CN(C)CC1CCCC1)[C@H](C)CN([C@@H](C)CO)S2(=O)=O	3.5	5.6	-1.2	-6.9

Three entries picked at random from the list so far, as already listed:
SMILES	rRNA inh HTS	rRNA inh HTS OD600	rRNA inh HTS RFP	AF4-AF9 inh
COCC(=O)N1[C@@H](C#N)[C@@H](c2ccccc2-c2cccc(OC)c2)[C@@H]1CO	1.0	7.4	3.5	0.0
C[C@H]1CN([C@@H](C)CO)C(=O)c2cc(NS(=O)(=O)c3ccc(F)cc3)ccc2O[C@H]1CN(C)Cc1ccc(C(F)(F)F)cc1	0.1	-13.3	8.1	0.1
CCCNC(=O)[C@H]1[C@H](CO)[C@H]2Cn3c(ccc(C4=CCCC4)c3=O)[C@@H]1N2	3.4	13.3	0.8	-2.6

Additional results follow.
SMILES	rRNA inh HTS	rRNA inh HTS OD600	rRNA inh HTS RFP	AF4-AF9 inh
COc1cccc(NC(=O)N[C@H]2CC[C@H](CC(=O)NCc3ccncn3)O[C@H]2CO)c1	-1.6	-1.5	-1.3	3.3
C[C@@H]1CN([C@H](C)CO)S(=O)(=O)c2ccc(-c3cccc(C#N)c3)cc2O[C@@H]1CN(C)C(=O)c1ccccc1	-11.4	-29.8	0.0	0.5
CCS(=O)(=O)NCC[C@H]1CC[C@@H](NC(=O)Cc2ccccn2)[C@H](CO)O1	-1.3	-2.3	1.3	-6.5
COc1ccc(-c2nc3ccc(Cl)cn3c2Cc2cccc(Cl)c2)cc1OC	-15.8	-23.4	-2.0	4.1
CC1(c2nnnn2-c2ccc3c(c2)OCCO3)CCC(=O)N1C1CC1 (configuration not stated)	11.8	12.8	-2.9	-2.9
CO[C@@H]1CN(C)C(=O)c2cc(NS(=O)(=O)c3cccc(Cl)c3)ccc2OC[C@@H](C)NC[C@H]1C	-1.6	5.3	1.1	-6.7
COc1ccccc1C#Cc1ccc2c(c1)[C@H]1[C@H](CCN1S(=O)(=O)c1ccc(C)cc1)[C@@H](CO)N2	4.9	17.3	-0.4	2.0
C[C@H](CO)N1C[C@H](C)[C@H](CN(C)Cc2ccc(-c3ccccc3)cc2)Oc2ccc(NS(C)(=O)=O)cc2C1=O	-2.9	-24.6	3.0	4.2
CC(C)NC(=O)Nc1ccc2c(c1)C(=O)N([C@H](C)CO)C[C@H](C)[C@@H](CN(C)C(=O)CCC(F)(F)F)OCCCC[C@@H](C)O2	0.4	6.1	-2.5	-1.5
COc1ccc(S(=O)(=O)N(C)C[C@@H]2Oc3ncc(-c4ccc(F)cc4)cc3C(=O)N([C@H](C)CO)C[C@@H]2C)cc1	0.9	4.3	-3.1	-1.1

Single entries from the list.
Result for `CCS(=O)(=O)NCC[C@H]1CC[C@@H](NC(=O)Cc2ccccn2)[C@H](CO)O1` under rRNA inh HTS: -1.3
Result for `CC(C)NC(=O)Nc1ccc2c(c1)C(=O)N([C@H](C)CO)C[C@H](C)[C@@H](CN(C)C(=O)CCC(F)(F)F)OCCCC[C@@H](C)O2` under rRNA inh HTS OD600: 6.1

Next part.
SMILES	rRNA inh HTS	rRNA inh HTS OD600	rRNA inh HTS RFP	AF4-AF9 inh
Nc1nc2c(ncn2[C@@H]2O[C@H](CNS(=O)(=O)N3CCc4ccccc4C3)[C@@H](O)[C@H]2O)c(=O)[nH]1	5.9	0.3	-4.2	2.1
C[C@@H]1CN([C@H](C)CO)C(=O)c2cc(NC(=O)NC3CCCCC3)ccc2O[C@@H](C)CCCCO[C@H]1CN(C)S(C)(=O)=O	1.1	1.5	0.6	-2.4
COc1cccc(NC(=O)N2C[C@H](O)COC[C@@H]3O[C@H](CC(=O)NC4CCCC4)CC[C@H]32)c1	-6.7	-17.4	-0.5	-2.8
Cc1noc(C)c1NC(=O)N[C@@H]1CC[C@@H](CCNC(=O)C2CC2)O[C@@H]1CO	1.5	2.5	-1.7	-1.6
COc1cccc(S(=O)(=O)N[C@@H]2CC[C@@H](CCN)O[C@H]2CO)c1	0.3	0.3	1.1	2.3
COc1cccc(C(=O)Nc2ccc3c(c2)C(=O)N(C)[C@@H]2CC[C@@H](CC(=O)NCc4ccccc4F)O[C@@H]2CO3)c1	-5.2	-16.2	1.1	-2.1
CCN(C[C@H]1N[C@@H](CO)[C@H]1c1ccccc1)C(=O)c1ccccc1	-0.2	-0.2	1.7	-1.5
N#C[C@H]1[C@@H](c2ccccc2C2=CCCCC2)[C@H](CO)N1S(=O)(=O)c1ccccc1	-29.8	-60.5	7.9	-3.5
C[C@H](CO)N1C[C@H](C)[C@@H](CN(C)Cc2cncnc2)Oc2cc(-c3cccnc3)ccc2S1(=O)=O	1.4	3.4	-4.3	-0.6
O=C(N[C@@H]1CC[C@H](CCNC(=O)C2CCCC2)O[C@@H]1CO)c1ccccn1	1.3	4.6	-2.1	1.8
Cn1nc(C(C)(C)C)cc1C(=O)N1CCCCC1c1cc(C(=O)Nc2ccc3c(c2)OCO3)no1 (configuration not stated)	3.5	-14.2	0.1	6.8

Source: PubChem BioAssay
